CBX7 inh – inhibitors of human CBX7 binding to H3K27me3 peptide; O95931; AlphaScreen His6-CBX7 / biotin-H3K27me3 peptide binding; stronger effect = lower value; normalised signal (fraction of DMSO) (test concentration not listed); 1.1% of 66,000 active; in the data active = normalised signal below about 0.5;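 also: 100 nL library stock added to about 20 µL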
Target sequence (O95931 whole entry, looked up): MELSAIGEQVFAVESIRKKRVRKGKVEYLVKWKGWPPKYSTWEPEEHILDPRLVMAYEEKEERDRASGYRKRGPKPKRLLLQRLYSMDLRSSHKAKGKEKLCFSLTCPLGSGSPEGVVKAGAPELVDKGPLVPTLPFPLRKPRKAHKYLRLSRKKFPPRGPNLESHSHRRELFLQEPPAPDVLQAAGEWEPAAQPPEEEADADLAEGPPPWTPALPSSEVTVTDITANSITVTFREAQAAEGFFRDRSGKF
CBX7 inh z-score – second read-out of CBX7 inh, no call of its own (marks repeat the call); z-score; measured here: z-score of CBX7 signal; some inactives read as strong as hits; reference of the scale not given here;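 same signal on another scale; lower means less binding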
Numbers without * were called inactive. Some of the compounds tested; the hit share may differ from the screen's.

SMILES | CBX7 inh | CBX7 inh z-score
COc1ccc(C(=O)Nc2ccc(S(=O)(=O)Nc3nccnc3OC)cc2)cc1OC | 1 | 1.2
O=c1cc(N2CCc3ccccc3C2)[nH]c(=O)n1-c1ccccc1Cl | 0.98 | -0.35
CCCCN(CCCC)S(=O)(=O)c1ccc(C(=O)Nc2nc3c(s2)COc2ccccc2-3)cc1 | 0.96 | -0.66
Nc1nonc1-n1nnc(C(=O)O)c1CSc1nc2ccccc2s1 | 0.93 | -1.9
CCOc1ccc(NC(=O)[C@H](CCS(C)(=O)=O)N2Cc3ccccc3C2=O)cc1 | 0.98 | -0.38
Cc1cccc(N2CCN(C(=O)c3ccc4c(c3)C(=O)N(c3cc(C)on3)C4=O)CC2C)c1 (stereo not drawn) | 1.1 | 2.4
CC1CCN(CC(=O)N2c3ccccc3CCc3ccccc32)CC1 | 0.93 | -0.15
Cc1ccc(C(C(=O)NC2CCCCC2)N(C)Cc2ccccc2)cc1 (stereo not drawn) | 0.87 | -3.1
COc1ccc(S(=O)(=O)N2CCC(C(=O)Nc3ccc(OC)c(Cl)c3)CC2)cc1 | 1.1 | 3.5
CC(=O)Nc1cc(-c2nc3cc(C(C)C)ccc3o2)ccc1Cl | 1 | 0.25
O=C(O)c1ccc2[nH]c(=O)c(Cc3cccc(F)c3)nc2c1 | 1.1 | 1.7
Cc1cccc(OCC(=O)N(Cc2cccs2)C2CCS(=O)(=O)C2)c1 (stereo not drawn) | 1 | 0.99
O=C(Cc1ccccc1)Nc1nnc(COc2ccccc2)s1 | 1 | 0.48
CC(C)(C)c1ccc(OCCCC(=O)Nc2sc3c(c2C(N)=O)CCCC3)cc1 | 1.2 | 1.6
CCn1cc(C(=O)N2CCN(c3ccccc3Cl)CC2)c(=O)c2ccc(C)nc21 | 0.99 | -0.073
CCOc1ccc(NC(=O)CC2C(=O)N(c3ccccc3)C(=O)N2CCc2sccc2C)cc1 (stereo not drawn) | 1 | 0.18
CC1CCCC(NC(=O)CCCN2C(=O)CSc3ncccc32)C1C (stereo not drawn) | 0.89 | -1.6
Clc1ccc(-c2nc(-c3ccccc3)c(-c3ccccc3)[nH]2)cc1Cl | 0.92 | -1.3
O=C(NCCCn1ccnc1)c1nn2c(c1Cl)NC(c1ccccc1)CC2C(F)(F)F (stereo not drawn) | 0.97 | -0.35
O=C(Nc1c(-c2ccccc2)nc2ccc(Cl)cn12)c1ccc(F)cc1 | 1 | 1.4
O=C(COc1ccc(-c2nnc(Nc3ccc(F)cc3)c3ccccc23)cc1)N1CCCCC1 | 1 | 0.12
O=C(c1cnc(N2CCN(c3ncccn3)CC2)c2ccccc12)N1CCN(c2ccccc2F)CC1 | 0.98 | -0.14
O=C(NC1CCCCC1)c1ccc2c(c1)N(Cc1cccc(Cl)c1)C(=O)CS2 | 1 | -0.062
COc1cccc(-c2nc(CS(=O)(=O)CC(=O)NCCN(CC(C)C)CC(C)C)c(C)o2)c1 | 0.94 | -0.5
Cc1ccnc(N2C(=O)c3ccccc3C2Nc2ccc(C)c(Cl)c2)c1 (stereo not drawn) | 1.1 | 1.9
CNC(=O)C1CC(=O)N(c2ccc(F)c(Cl)c2)C1 (stereo not drawn) | 1.1 | 1.3
Cc1nnc2ccc(NCCCc3ccccc3)nn12 | 1 | 0.14
CCN(C(=O)c1cc2c(s1)-c1ccccc1OC2)c1ccc(OC)cc1 | 0.87 | -3.1
CCOC(=O)c1cnc2ccc(Br)cc2c1NCCN1CCOCC1 | 0.88 | -1.3
Cc1nc2c(C(=O)NCCC(C)C)cnn2c(C)c1Cc1ccccc1Br | 0.99 | -0.085
Cc1ccccc1-n1nc2c(c1NC(=O)COc1ccccc1)CS(=O)(=O)C2 | 1.2 | 1.6
CC(Oc1ccc(Cl)cc1Cl)C(=O)NCCCN1CCOCC1 (stereo not drawn) | 1 | -0.11
COc1ccc(Br)cc1CN1C(=O)c2ccccc2C1C(=O)NCC1CCCO1 (stereo not drawn) | 1 | 0.35
CC1CCN(C(=O)CSc2nc(Nc3ccc(F)cc3)c3ccccc3n2)CC1 | 0.63 | -1
COc1cc(C2CC(=O)NC3=C2C(=O)CC(C)(C)C3)ccc1OC(C)C (stereo not drawn) | 1.2 | 1.1
COc1cccc(OC)c1C(=O)Nc1c(C(N)=O)oc2ccccc12 | 1 | 0.92
CCc1cccc(C)c1Nc1c(-c2cccs2)nc2cnccn12 | 1 | 0.79
Cc1cccc(OCCOc2cccc(-c3nc4sc5c(c4c(=O)[nH]3)CCCC5)c2)c1 | 1.1 | 1.4
COc1ccccc1C(=O)NCCc1cc2ccc(C)c(C)c2[nH]c1=O | 1.2 | 1.2
CCCC1CCC(c2nc(-c3ccc(OC(F)F)cc3)no2)CC1 (stereo not drawn) | 1.2 | 4.2
Cc1ccc(-c2noc(CCC(=O)NCCN3CCN(c4cccc(Cl)c4)CC3)n2)cc1 | 1 | 1
CCCCN(CC)C(=O)c1c[nH]c2ccc(S(=O)(=O)Nc3ccc(C(C)C)cc3)cc2c1=O | 1.1 | 1.4
Cc1ccccc1C1CC(c2ccc(Cl)cc2)Nc2ncnn21 (stereo not drawn) | 0.98 | -0.8
CCN(CC)S(=O)(=O)c1ccc2oc(C(=O)Nc3ccc(Oc4ccccc4)cc3)c(C)c2c1 | 1.1 | 2.1
O=[N+]([O-])c1ccc2nc(SCc3cn4cccnc4n3)[nH]c2c1 | 1.1 | 0.22
Cc1ccc(-c2noc(CCC(=O)N3CCN(c4cccc(C)c4)C(C)C3)n2)cc1 (stereo not drawn) | 1 | 0.23
CC(C)(C)NC(=O)CSc1nc2ccc(Cl)cc2o1 | 1.1 | 1.5
CC(=O)c1ccc(NC(=O)CSc2nnc(-c3ccncc3)n2-c2ccccc2)cc1 | 1 | 0.24
COCC(=O)NCc1nc2ccccc2n1Cc1ccccc1C | 0.86 | -1.6
Cc1ccc(NC2c3ccccc3C(=O)N2c2ccc(Cl)cn2)cc1C (stereo not drawn) | 0.95 | -1.4
COc1ccc(CCNC(=O)C2CCN(S(=O)(=O)c3ccccc3)CC2)cc1OC | 0.87 | -2.5
COc1ccccc1NC(=O)Cn1cnc2sc(C(=O)Nc3ccc4c(c3)OCO4)c(C)c2c1=O | 0.8 | -2.1
O=C(Nc1ccc2c(c1)OCO2)C1(S(=O)(=O)c2ccc(Cl)cc2)CC1 | 0.96 | -0.97
COc1ccc(C(=O)CC2(O)C(=O)Nc3ccc(Cl)cc32)cc1 (stereo not drawn) | 1.1 | 2.6
COc1ccc(CCNS(=O)(=O)c2ccc3c(c2)n(C)c(=O)c(=O)n3C)cc1OC | 1 | 0.29
Cc1ccccc1Cc1c(C)nc2c(C(=O)O)cnn2c1C | 1 | 0.64
CC(NS(=O)(=O)c1ccc(F)cc1)C(c1cccs1)N1CCN(C)CC1 (stereo not drawn) | 1 | 0.11
Cc1ccc(Nc2nc3nonc3nc2NCCc2ccccc2)cc1C | 0.77 | -12
O=C(Cn1ccc2ccccc2c1=O)NCCC(=O)Nc1cccnc1 | 1.1 | 1.3
CCc1cccc(NC(=O)Cc2c(C(=O)O)[nH]c3ccccc23)c1 | 1 | 0.23

Given in CSV form: 17 of the compounds above.
Structure,CBX7 inh,CBX7 inh z-score
Cc1cccc(OCCOc2cccc(-c3nc4sc5c(c4c(=O)[nH]3)CCCC5)c2)c1,1.1,1.4
COc1ccccc1C(=O)NCCc1cc2ccc(C)c(C)c2[nH]c1=O,1.2,1.2
CCCC1CCC(c2nc(-c3ccc(OC(F)F)cc3)no2)CC1 (stereo not drawn),1.2,4.2
Cc1ccc(-c2noc(CCC(=O)NCCN3CCN(c4cccc(Cl)c4)CC3)n2)cc1,1,1
CCCCN(CC)C(=O)c1c[nH]c2ccc(S(=O)(=O)Nc3ccc(C(C)C)cc3)cc2c1=O,1.1,1.4
Cc1ccccc1C1CC(c2ccc(Cl)cc2)Nc2ncnn21 (stereo not drawn),0.98,-0.8
CCN(CC)S(=O)(=O)c1ccc2oc(C(=O)Nc3ccc(Oc4ccccc4)cc3)c(C)c2c1,1.1,2.1
O=[N+]([O-])c1ccc2nc(SCc3cn4cccnc4n3)[nH]c2c1,1.1,0.22
Cc1ccc(-c2noc(CCC(=O)N3CCN(c4cccc(C)c4)C(C)C3)n2)cc1 (stereo not drawn),1,0.23
CC(C)(C)NC(=O)CSc1nc2ccc(Cl)cc2o1,1.1,1.5
CC(=O)c1ccc(NC(=O)CSc2nnc(-c3ccncc3)n2-c2ccccc2)cc1,1,0.24
COCC(=O)NCc1nc2ccccc2n1Cc1ccccc1C,0.86,-1.6
Cc1ccc(NC2c3ccccc3C(=O)N2c2ccc(Cl)cn2)cc1C (stereo not drawn),0.95,-1.4
COc1ccc(CCNC(=O)C2CCN(S(=O)(=O)c3ccccc3)CC2)cc1OC,0.87,-2.5
COc1ccccc1NC(=O)Cn1cnc2sc(C(=O)Nc3ccc4c(c3)OCO4)c(C)c2c1=O,0.8,-2.1
O=C(Nc1ccc2c(c1)OCO2)C1(S(=O)(=O)c2ccc(Cl)cc2)CC1,0.96,-0.97
COc1ccc(C(=O)CC2(O)C(=O)Nc3ccc(Cl)cc32)cc1 (stereo not drawn),1.1,2.6

More entries
SMILES | CBX7 inh | CBX7 inh z-score
COCCNS(=O)(=O)c1cc(-c2nn(C)c(=O)c3ccccc23)ccc1C | 0.89 | -1.2
Cc1cc(C)cc(C(=O)N2CC(=O)Nc3ccc(Br)cc3C2c2ccc(F)cc2)c1 (stereo not drawn) | 0.85 | -3.8
O=C1CCc2cc(S(=O)(=O)NCC3COc4ccccc4O3)ccc2N1 (stereo not drawn) | 1 | 1.6
Cc1ccc(C(=O)Nc2cc(-c3nc4ncccc4o3)ccc2C)c(Cl)c1 | 1 | 0.039
CCOC(=O)N1CCC(Nc2c(NCCCN(C)c3ccccc3)c(=O)c2=O)CC1 | 0.97 | -1.3
O=c1[nH]c(CN2CCN(CCO)CC2)nc2ccccc12 | 0.95 | -0.58
COc1ccccc1-c1nnc(-c2cc3ccccc3cc2OC)o1 | 1.4 | 4.3
CC1(C)CC(=O)N(CC(=O)NCc2ccc(F)cc2)c2ccccc2S1(=O)=O | 1 | 0.21
COc1ccccc1Nc1nc(-c2sc(NC(C)=O)nc2C)cs1 | 0.94 | -0.14
CCOC(=O)c1cnc2ccc(OCC)cc2c1Nc1ccc(N2CCOCC2)cc1 | 0.51 | -13
CCN(CC)c1cc(C)c2cc(NC(=O)c3ccc4c(c3)OCO4)ccc2n1 | 0.81 | -2.1
O=C(NCCCN1CCCC1=O)c1ccc2c(c1)N(Cc1ccc(F)cc1)C(=O)c1ccccc1S2=O (stereo not drawn) | 1 | 0.14
CCC(C)NC(=O)c1c[nH]n2c(=O)c(Cc3ccccc3Cl)c(C)nc12 (stereo not drawn) | 0.83 | -1.7
O=C(Nc1ccccc1)c1cc(S(=O)(=O)Nc2ccc(Cl)cc2)cs1 | 0.99 | -0.3
COCCNC(=O)CN1CCN(Cc2cccc(Cl)c2)C1=O | 0.93 | -0.97
CCCn1c(C(O)c2ccc(C)cc2)nc2ccccc21 (stereo not drawn) | 1 | 1.1
COc1ccccc1-c1cc2nc(C)c(CCC(=O)NC3CCN(Cc4ccccc4)CC3)c(C)n2n1 | 1.1 | 2.1
COC(=O)c1ccccc1NC(=O)c1cc(-c2ccc(OC)cc2)on1 | 1.3 | 1.5
CCOc1ccc2nc(N3CCC(C(=O)NCCCN(CC)CC)CC3)sc2c1 | 1.2 | 0.79
O=C(CCCN1C(=O)CSc2ncccc21)NC1CCCCCC1 | 1.1 | 0.19
CC(NS(=O)(=O)c1ccccc1)C(c1cccs1)N1CCN(c2ccccc2F)CC1 (stereo not drawn) | 0.94 | -1.5
CCOC(=O)CNC(=O)CSc1nnc(Cc2cccn2C)n1-c1ccc(OC)cc1 | 0.95 | -1.2
Cc1cccc(NC(=O)c2ccccc2Br)n1 | 1 | 0.73
Cc1nc2ccc(S(=O)(=O)NC(C(=O)NCc3ccccc3Cl)C(C)C)cc2s1 (stereo not drawn) | 1 | 0.89
COc1ccc(CSc2nnc(-c3ccc(Cl)cc3Cl)o2)cc1 | 1.2 | 9.3
Cc1ccc(S(=O)(=O)c2nc(-c3ccccc3F)oc2NCc2ccccc2)cc1 | 0.85 | -1.5
CCOC(=O)c1c(CSc2nc3ccccc3s2)oc2ccc(OC)cc12 | 1.6 | 1.3
Cc1cc(NC(=O)Cc2c(C(=O)O)[nH]c3ccc(Cl)cc23)no1 | 0.89 | -1.2
Cc1ccc(NC(=O)Cn2nc(Cc3ccncc3)c3ccccc3c2=O)c(Cl)c1 | 1 | 0.9
Fc1ccc(Nc2nc(-c3ccc(Cl)cc3)cs2)cc1 | 0.82 | -3.9
CCCOc1ccc(-c2ccc(-c3nc(-c4ccccn4)no3)cc2)cc1 | 1 | 0.17
CN(C)CCCNc1nc(-c2ccccc2)c2c(c1C#N)CC(C)(C)OC2 | 1 | 0.21
Fc1ccccc1OCCn1c(SCc2nc3ccccc3[nH]2)nc2ccccc21 | 0.73 | -6.8
Cc1c(C(=O)NCCC2=CCCCC2)oc2ccc(S(=O)(=O)N3CCCCC3)cc12 | 1.1 | 2.7
Cc1ccc(-c2nnc(Nc3ccc(F)cc3)c3ccccc23)cc1S(=O)(=O)N1CCCCC1 | 0.9 | -1.2
CCOc1ccc(NC(=O)c2ccc(NC3=NC4CS(=O)(=O)CC4S3)cc2)cc1 (stereo not drawn) | 1.3 | 3.1
Cc1nc2cc(-c3cccc(F)c3)nn2c(C)c1CCC(=O)Nc1ccc(CN2CCCC2)cc1 | 0.98 | -0.84
CCN(CC)S(=O)(=O)c1ccc2[nH]cc(C(=O)NCC3CCCO3)c(=O)c2c1 (stereo not drawn) | 1 | 1
CCC1Oc2ccc(C)cc2N(CC(=O)N2CCCCC2)C1=O (stereo not drawn) | 1 | 1.6
CCOC(=O)c1cc(-c2cc(OC)c(OC)c(OC)c2)no1 | 1.1 | 3
CCc1ccc(-c2nc(CN3CCC(C(=O)NCc4cccnc4)CC3)c(C)o2)cc1 | 1.1 | 0.089
Nc1nonc1-c1nc2ccccc2n1CC(=O)Nc1ccc(F)cc1F | 1 | 0.64
COc1ccc(-c2nc(CN3CCC(C(=O)NCC(OC)OC)CC3)c(C)o2)cc1OC | 1.1 | 1.2

Bioassay records deposited in PubChem by several laboratories.
